Ba CapD inh: Bacillus anthracis CapD inhibitors, primary screen, biochemical, fluorescence intensity | purified CapD enzyme, fluorescence intensity read-out; hits give low values; some hits fall short of the stated cut | z-score (no concentration beside the values) | actives 0.23% (n = 140,000);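 active = z-score under -4 in either of two replicates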;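 note: stock transfer was 100 nL into about 40 µL; score is relative to mean and spread of the plate; one replicate is shown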
AID504770: growth inhibition of E. coli YBA685, primary screen, V. cholerae RctB inhibitors; z-score (no concentration beside the values); actives 0.27% (n = 130,000); AID 504770, 2011; E. coli YBA685 rctB-dependent plasmid, OD600 growth, 3 h; hits give low values;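 active = z-score under -2 on both plates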;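 note: wells of about 30 µL received 100 nL stock; score is relative to mean and SD of the test wells; the first replicate is given; strong numbers were not always called active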
The depositor's hits bear a star; . = not tested or not shown.

| mol | Ba CapD inh | AID504770 |
| --- | --- | --- |
| COc1cccc(-n2c(-c3ccco3)n[nH]c2=S)c1 | 1.4 | . |
| COc1ccccc1N(CCOC(=O)CN1C(=O)c2ccccc2C1=O)C1=NS(=O)(=O)c2ccccc21 | 0.66 | . |
| Cc1[nH]n(-c2ccccc2)c(=O)c1CCC(=O)O | . | 0.1 |
| Cc1noc(C)c1CN(C(=S)NC1CC1)c1ccccc1 | . | 0.4 |
| O=C(Nc1ccc(-c2nc3ccccc3[nH]2)cc1)c1ccccc1 | 8.8 | 0.35 |
| CS(=O)(=O)c1ccc2ccn(OCc3c(Cl)cccc3Cl)c2c1 | -0.6 | . |
| CC(C)C(NC(=O)c1ccc(Cl)nc1)c1ccc2c(c1)OCCCO2 (centres undefined) | . | -0.2 |
| COc1ccc(N(CC(=O)NCCc2ccc(OC)c(OC)c2)S(=O)(=O)c2ccc(OC)c(OC)c2)cc1 | 0.14 | . |
| N#CC(C#N)=Cc1cc2c(cc1Br)OCO2 | . | 0.85 |
| CC(C)(C)c1ccc2c(c1)C1c3ccc(C(C)(C)C)cc3C2C2C(=O)N(c3ccc(Oc4ccc(Br)cc4)cc3)C(=O)C12 (centres undefined) | 0.14 | . |
| COc1ccc(NC(=O)C2CC(=O)N(CCc3ccccc3)C(=Nc3ccccc3)S2)cc1 (centres undefined) | -0.73 | . |
| CCOC(=O)C1=C(C)N=c2s/c(=C\c3cc(Br)c(O)c(OC)c3)c(=O)n2C1c1ccc(OC)cc1 (centres undefined) | -0.38 | . |
| COC(=O)c1c(CC=C(C)C)c(C)nc2ccccc12 | -0.24 | 0.15 |
| Cc1nc2c(ccc3nc(NC(=O)c4ccc(S(=O)(=O)N5CCc6ccccc65)cc4)sc32)s1 | -0.32 | . |
| CCN1CCN(C(=O)c2ccc(Br)o2)CC1 | 0.03 | 0.75 |
| N#C/C=C/N1CCc2ccccc2C1 | . | 0.15 |
| NNC(=O)CS(=O)(=O)c1ccc(C(F)(F)F)cn1 | -0.16 | -0.9 |
| Cc1cc2c(cc1C)-c1nc3ccccc3cc1C2 | 6.6 | . |
| O=C(c1cnc2n(c1=O)CCS2)N(Cc1ccccc1)c1ccccc1 | -0.03 | 0.15 |
| COc1ccc2c(c1)OC13CCCCC1C2C(C(=O)c1ccccc1)C(=O)N3 (centres undefined) | 0.59 | -0.4 |
| CC(C)N(Cc1nnc(-c2ccccc2Cl)o1)C(=O)CCN1C(=O)NC2(CCCC2)C1=O | . | -0.55 |
| O=S(=O)(NCc1cccc2ccccc12)c1ccc(Cl)s1 | -0.13 | . |
| COCCOC(=O)C1=C(C)NC2=C(C(=O)CC(c3ccc(OC)c(OC)c3)C2)C1c1ccccc1OC (centres undefined) | 5.2 | . |
| CC1CC(C)CN(C(c2ccccc2)c2sc3ncnn3c2O)C1 (centres undefined) | -0.74 | 1.2 |
| CCC(C)c1ccc(N=C(NO)c2ccc(OC)cc2)cc1 (centres undefined) | -0.39 | 0.45 |
| COC(=O)c1ccc(-c2csc(C)n2)s1 | 52 | -0.1 |
| C=CCN1C(=S)NC2CC1(C)Oc1c(OCC)cccc12 (centres undefined) | 0.46 | 0.45 |
| CC(C)CCN1CC(C(=O)NC2CCCCCC2)CC1=O (centres undefined) | 0.31 | -0.5 |
| O=C(CN1CCCC1)c1ccccc1Br | . | -0.85 |
| Cc1c(Cl)cccc1NC(=O)c1cc(S(=O)(=O)N2CCN(c3ccccc3F)CC2)ccc1F | -0.57 | . |
| COc1ccc2c(-c3ccc(Cl)cc3)c(C)oc2c1 | 0.09 | -0.65 |
| O=c1c2ccccc2nc(-c2ccoc2)n1-c1ccccc1 | -0.11 | -0.4 |
| O=C(COC(=O)COc1ccc(Cl)cc1)Nc1ccc(Br)cc1F | 0.095 | -0.5 |
| O=C(O)CSc1nc2ccc(Cl)cc2[nH]1 | . | -0.45 |
| CCn1cnc2cc(NCc3nc4ccccc4n3Cc3ccccc3)ccc21 | 6 | -0.55 |
| Cc1cc2ccccc2c(=O)n1CC(=O)NCC(=O)Nc1nc2ccccc2s1 | 0.2 | . |
| c1ccc(CN2CCn3c4c(c5ccccc53)CCCC42)cc1 (centres undefined) | -0.32 | . |
| O=C(Nc1ccon1)c1ccccc1F | 0 | 0.95 |
| COc1ccc(CCNC(C#N)c2ccc(Cl)c(Cl)c2)cc1OC (centres undefined) | 0.93 | . |
| O=C(CNC(=O)C12CC3CC(CC(C3)C1)C2)OCc1nnc(-c2ccccc2)o1 | . | 2.4 |
| FC(F)(F)c1ccccc1NC(=S)Nc1ccc(-c2csnn2)cc1 | -0.59 | 1.1 |
| N#Cc1ccc(COC(=O)C2CCC(=O)N2)cc1 (centres undefined) | . | 1.1 |
| Cc1nc2nc(NC(=O)c3ccc(F)cc3)[nH]n2c(=O)c1Cl | -0.065 | 0.3 |
| CCC1C2CC3[C@@H]4N(C)c5ccccc5[C@]45CC(C2[C@H]5O)N3[C@@H]1O (some centres undefined) | -0.39 | . |
| CC(C)(C)OC(=O)C[n+]1cccc(C(N)=O)c1 | 0.21 | -0.15 |
| Cc1nc(SCC(=O)Nc2ccc3c(c2)OCCO3)n(CC(C)C)c1C | . | -3.1 |
| CC1(C)NC(=O)N(CC(O)COc2ccc(N3C(=O)c4ccccc4C3=O)cc2)C1=O (centres undefined) | . | 1.7 |
| Clc1cccc(NCn2nnc3ccccc32)c1Cl | -0.45 | 0.15 |
| Cc1nc(N2CCCCC2)c2c(C)c(C(=O)Nc3cccc(C(F)(F)F)c3)sc2n1 | 0.21 | 0.05 |
| CC(O)c1nc2ccccc2n1Cc1ccccc1F (centres undefined) | -0.23 | -0.75 |
| COc1cc(C(=O)Nc2ccc3oc(-c4ccccc4Cl)nc3c2)cc(OC)c1OC | 30 | . |
| O=C(NCc1ccc(F)cc1)c1cc(C(=O)c2cccc(Cl)c2Cl)c[nH]1 | 0.33 | . |
| CCCC(C)COC(=O)C1=C(C)NC(=O)NC1c1cc2c(cc1Br)OCO2 (centres undefined) | -0.41 | . |
| COc1ccc2c(Sc3ccc(Cl)cc3)c(C(=O)NCCCN3CCN(C)CC3)[nH]c2c1 | -0.03 | 1 |
| O=S(=O)(Nc1cccnc1)c1cc(Cl)sc1Cl | -0.67 | -0.45 |
| NCC(=O)Nc1ccc(Br)cc1 | -0.18 | -1.1 |

Overlap with the part before: two compounds; new compounds follow.
| SMILES | Ba CapD inh | AID504770 |
| --- | --- | --- |
| O=S(=O)(Nc1cccnc1)c1cc(Cl)sc1Cl | -0.67 | -0.45 |
| NCC(=O)Nc1ccc(Br)cc1 | -0.18 | -1.1 |
| COc1ccccc1C(=O)Nc1ccc(N2CCN(S(C)(=O)=O)CC2)cc1 | . | -0.35 |
| CC1CCCN(CCCNC(=O)CCn2nc(-c3ccccc3)ccc2=O)C1 (centres undefined) | -0.12 | 1.4 |
| CCOC(=O)Cn1cc(/C=C(\C#N)Sc2nc3ccccc3s2)c2ccccc21 | -0.57 | 0.7 |
| Nc1nc2ccc([N+](=O)[O-])cc2s1 | -2.2 | . |
| O=C(NCC1CCCO1)c1noc2c1CSc1ccccc1-2 (centres undefined) | -0.06 | 1.4 |
| FC(F)(F)c1cc(N2CCCCC2)c2cccc(Cl)c2n1 | 1.7 | -0.25 |
| CC(C)c1ccc(N(C)C(=O)Cc2c(C(=O)O)n(C)c3ccccc23)cc1 | -0.86 | . |
| CCc1nc2sc(C#N)c(N)c2cc1C | 8.9 | 0 |
| Cc1cc2c(ncn2C)c(NS(=O)(=O)c2cc(Cl)ccc2Cl)c1C | -0.68 | . |
| CCOC(=O)c1cnc2cc(Cl)c(F)cc2c1N1CCOCC1 | 0.055 | . |
| O=C1CC(c2ccccc2F)c2cc(Br)c3ccccc3c2N1 (centres undefined) | -0.03 | . |
| Nc1nc(-c2cccnc2)nn1C(=O)Cc1ccccc1 | 1.3 | 0.15 |
| N#Cc1c(NC(=O)c2ccccc2C(=O)O)sc2c1CCCC2 | -0.65 | . |
| O=C(SCC(=O)N1CCc2ccccc21)c1ccccc1 | -1.1 | 1.4 |
| CCN(CC)C(=O)/C(=C/c1ccccc1)c1ccccc1 | -0.55 | -0.5 |
| COC(=O)C1(N2CCOCC2)/C(=C(\O)c2ccccc2)C(=O)C(=O)N1c1ccccc1 (centres undefined) | . | -0.45 |
| CN1CCN(c2cc3c(c4c2[nH]c2ccccc24)C(=O)CC(C)(C)C3)CC1 | 8.4 | -0.95 |
| Cc1ccc(SCC(O)CN2CCN(c3ccccc3F)CC2)cc1 (centres undefined) | -0.43 | . |
| CCOC(=O)CC(=O)CSc1nc2c(sc(=S)n2-c2ccccc2C)c2nc3ccccc3n12 | -0.27 | . |
| CC(=O)n1c(/C=C2/N=C(c3cccs3)OC2=O)cc2ccccc21 | . | -1 |
| CCN1C(=O)/C(=C/C=C2/N(CC)c3ccc(S(=O)(=O)N(C)C)cc3N2CC)SC1=S | 0.065 | . |
| CCOc1ccc(-n2c(CCC(=O)OC3CCOC3=O)nc3ccccc3c2=O)cc1 (centres undefined) | . | -0.55 |
| CCCCc1ccc(NC(=O)C(=O)NCCN2CCN(Cc3ccc([N+](=O)[O-])cc3)CC2)cc1 | 0.19 | . |
| CC(C)(O)c1cc(C(F)(F)F)cc(C(F)(F)F)c1 | -0.24 | -0.05 |
| CCN(CC)S(=O)(=O)c1ccc(OC)cc1 | -0.28 | -0.85 |
| S=c1oc(-c2ccco2)nn1CN1CCc2ccccc2C1 | . | -0.25 |
| CCOC(=O)c1sc2nc(Cc3ccccc3)nc(NCC3CCCO3)c2c1C (centres undefined) | 63 | . |
| c1ccc(-n2ncc3c(N4CCN(CCOc5cccc6ccccc56)CC4)ncnc32)cc1 | . | -0.9 |
| Cn1c2[n+](c3ccccc3c1=O)Cc1ccccc1-2 | 34 | . |
| O=C(CSc1nnc(-c2cnccn2)s1)c1ccccc1 | 1.9 | -0.1 |
| CC(=O)NCCC(=O)Nc1ccc(N(c2ccccc2)C(C)C)cc1 | . | -0.4 |
| Cc1cc(C(F)(F)F)c(C#N)c(SCC(=O)c2ccccc2)n1 | 0.38 | -0.2 |
| CCOC(=O)C1CCCN(C(=O)c2ccc3c(c2)C(=O)N(Cc2ccco2)C3=O)C1 (centres undefined) | . | -0.55 |
| O=C(CN1CCC(O)CC1)N1c2ccccc2Sc2ccc(C(F)(F)F)cc21 | 0.33 | . |
| CN(CC1COc2ccccc2O1)C(=O)c1ccc2[nH]c(=O)c(=O)[nH]c2c1 (centres undefined) | . | 1.6 |
| O=C(NCCCN1CCOCC1)c1ccc2c(c1)N(Cc1cccc(Cl)c1)C(=O)c1ccccc1S2=O (centres undefined) | -1.1 | 0.55 |
| Cc1ccc(CSCCNS(=O)(=O)c2ccccc2)cc1 | -0.005 | 0.05 |
| Cc1nc(-c2ccccc2)sc1C(=O)Sc1ccc(Cl)cc1 | 9.6 | 1.9 |
| O=C(CSc1nc2ccccc2[nH]c1=O)Nc1ccccc1 | . | 2 |
| COc1ccc(N(C=O)/C=C2\Sc3ccccc3C2=O)cc1 | -0.79 | -0.15 |

Quoted at random: 5 records from the list
| SMILES | Ba CapD inh | AID504770 |
| --- | --- | --- |
| Cc1ccc(CSCCNS(=O)(=O)c2ccccc2)cc1 | -0.005 | 0.05 |
| CCOC(=O)C1CCCN(C(=O)c2ccc3c(c2)C(=O)N(Cc2ccco2)C3=O)C1 (centres undefined) | . | -0.55 |
| CN(CC1COc2ccccc2O1)C(=O)c1ccc2[nH]c(=O)c(=O)[nH]c2c1 (centres undefined) | . | 1.6 |
| Cc1nc(-c2ccccc2)sc1C(=O)Sc1ccc(Cl)cc1 | 9.6 | 1.9 |
| O=C(CN1CCC(O)CC1)N1c2ccccc2Sc2ccc(C(F)(F)F)cc21 | 0.33 | . |

Further entries follow:
| SMILES | Ba CapD inh | AID504770 |
| --- | --- | --- |
| CCOC(=O)NC(=O)c1cn(CCc2ccncc2)c(=O)[nH]c1=O | -0.07 | -0.65 |
| O=C(c1ccccc1O)N1N=C(c2ccc(Br)cc2)CC1(O)C(F)(F)F (centres undefined) | -1 | . |
| Clc1ccc(-c2nc(NCCN3CCOCC3)c3ccccc3n2)cc1 | -0.05 | . |
| O=C1N=C(N2CCN(C(c3ccccc3)c3ccccc3)CC2)S/C1=C\c1ccccc1 | -0.13 | . |
| CC(=O)N1CC2(C(C)C)CN(C(C)=O)CC(C(C)C)(C1)C2=O | 0.27 | . |
| O=c1[nH]c2ccc(S(=O)(=O)Nc3ccc4c(c3)OCO4)cc2[nH]c1=O | 0.01 | -1.4 |
| COc1ccc(C2=N/C(=C/c3ccc(OC)c(OC)c3)C(=O)O2)cc1Br | 0.59 | . |
| CC(=O)NC(CC(=O)N1CCN(S(=O)(=O)c2ccc(C)cc2)CC1)c1ccccc1 (centres undefined) | . | -0.95 |
| CC(C)C(=O)Nc1ccc(Sc2ccc(F)cc2)cc1 | -0.12 | 2.8 |
| Cc1ccc(C(=O)OCC(=O)NCc2ccccc2Cl)s1 | 0.22 | 0.7 |
| CC(C)[C@H](NC(=O)c1ccccc1)C(=O)Nc1ccc2c(c1)OCO2 | . | -0.4 |
| Cc1cc2ncn(S(=O)(=O)c3ccc(S(=O)(=O)N(C)C)cc3)c2cc1C | . | -0.65 |
| Cn1c(=O)c2c(nc(N3CCN(Cc4ccccc4)CC3)n2CC(=O)c2ccccc2)n(C)c1=O | -0.05 | . |
| O=C(C1CCC1)N1CCN(c2ccccc2)CC1 | . | 2.5 |
| O=[N+]([O-])c1ccc(CN2CCC(c3cc(-c4ccco4)n[nH]3)CC2)cc1 | -0.095 | . |
| COCCCN1C(=Nc2cccnc2)SCC1(O)c1ccccc1 (centres undefined) | . | -2.1 |
| O=C(NCc1cccc(C(F)(F)F)c1)c1ccc[nH]1 | -0.02 | 1 |
| COc1ccc(/C=C/C(=O)Nc2ccc(-n3nncc3-c3ccc(OC)c(OC)c3)cc2)cc1OC | 0.33 | 0.15 |
| CCNC(=O)CCn1nc(-c2ccccc2)c2ccccc2c1=O | . | 1.6 |
| O=C1C=CC(=O)N1c1ccc(S(=O)(=O)Nc2ccc(C(F)(F)F)cc2)cc1 | 0.59 | 0.7 |
| CC(=O)N(c1cc(Cl)cc(Cl)c1)c1nc(C)cc(C)n1 | -0.005 | . |
| COc1ccc(CNC(=O)C(CC(=O)N2CCOCC2)n2ccnc2)cc1 (centres undefined) | . | -0.05 |

Compound activity from PubChem.
